# Calb biofilm kill: mixtures killing C. albicans biofilm; inhibition, % at 7.6 µM; C. albicans biofilm persisters + clotrimazole, fluorescence viability; primary screen in compound mixtures of four per well; 120,000 tested, 0.02% active;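 active = inhibition above 30.3% in the primary screen of four-compound pools, then above 30% when the compound was retested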;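 note: compounds exposed to preformed 24 h biofilms for 48 h; the number belongs to the whole pool; some results filed as inactive read as strong as hits; inactives centre near 12; 0% = biofilm with clotrimazole alone and 100% = kill control; retested singly at about 60 µM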
#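 Test system: C. albicans biofilms. Buffer or medium: RPMI/MOPS medium, pH 7.0. Timing: 48 h compound exposure at 37 °C. Technique: Alamar Blue fluorescence. Evaluation: percent inhibition of biofilm viability.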
# Starred values were filed as active, the others as inactive.
SMILES,Calb biofilm kill
O=C(/C=C/c1cccs1)N1CCN(c2ccc(F)cc2)CC1,14
O=C(COc1ccccc1-c1ccccc1)N/N=C/c1ccncc1,2
c1ccc2oc(C3=NNC(=NC4CC4)SC3)cc2c1,14
N#Cc1cnn(-c2cccc(Cl)c2)c1N,9
Cc1ccc(/C=C/C(=O)O)cc1S(=O)(=O)N(CCO)CCO,11
CC(=O)NN1C(=O)c2ccccc2NC1c1ccco1 (stereo not drawn),11
Clc1ccc2c(c1)-c1[nH]ncc1CS2,17
Cc1ccc(-c2cc(Cc3ccccn3)c(=O)[nH]n2)cc1,22
Cc1c(C(C)(C(=O)O)c2c(C)n(C)c3ccccc23)c2ccccc2n1C,9
Cc1ccc(-c2csc3nc4ccc(C(=O)NCCO)cc4c(=O)n23)cc1,17
CC1(C)C=Cc2c(c3c(c4c(=O)c(-c5ccc(O)cc5)coc24)OC(C)(C)CC3)O1,22
O=C(C1CCCN(CCCc2ccccc2)C1)N1CCCCCC1 (stereo not drawn),15
COc1ccc(CNC(=O)C(C)Cc2ccccc2)cc1O (stereo not drawn),6
CCOCCCNC(=O)C(NC(=O)c1ccc(NC(C)=O)cc1)c1ccc(C)cc1 (stereo not drawn),17
OCCC1CN(Cc2cccn2-c2ccccn2)CCN1Cc1ccccc1 (stereo not drawn),14
O=C(c1ccoc1)N1CCC2(CC1)Oc1ccc(Cl)cc1C(=O)C21CC(c2ccc(Cl)cc2)=NO1 (stereo not drawn),14
O=C(Nc1ccc(N2CCN(c3ccccc3)CC2)c(F)c1)C1CC1,20
Cc1c(NC(=O)C(C)OC(=O)c2cc(Cl)nc(Cl)c2)c(=O)n(-c2ccccc2)n1C (stereo not drawn),1
CC1CN(S(=O)(=O)c2ccc(C(=O)NCCCn3ccnc3)cc2)CC(C)O1 (stereo not drawn),14
CCOC(=O)c1c(C)n(C)c2cc(-c3ccc(F)cc3)c(O)cc12,18
Cc1ccc2oc(=O)n(CCCOc3ccccc3C)c2c1,8
Cc1cc(C(F)F)n2ncc(C(=O)N3CCCCC3)c2n1,10
FCCCOc1ccc(CN2CCN(c3ccccc3F)CC2)cc1,17
O=C(/C=C/c1ccc(OCc2c(F)cccc2Cl)cc1)N1CCOCC1,6
CCOC(=O)c1ccc2c(c1)N(CC#N)C(=O)C(C)(C)O2,11
O=C(CSc1nnc(COc2ccc(Br)cc2)o1)N1CCOCC1,21
COc1ccc(NC(=S)N(CCN(C)C)C(C)c2ccncc2)cc1Cl (stereo not drawn),12
Cc1cc(C)c(C)c(S(=O)(=O)Nc2ccccc2C(=O)O)c1C,8
Cc1noc(C(F)(F)F)c1C(=O)NNC(=O)c1cccc(C(F)(F)F)c1,18
COC(=O)c1ccccc1N/C=C/C(=O)c1ccc(Br)cc1,14
CSc1ccc(/C=N/NC(=O)c2cccs2)cc1,15
CCC(C)C(NC(=O)C1CCC(C)CC1)C(=O)Nc1ccc(OC)cc1OC (stereo not drawn),1
C/C(CCc1ccc2c(c1)OCO2)=N\NC(=S)NC(C)C,14
Cc1ccc(NC(=O)CCn2cnc3ccccc3c2=O)cc1,13
CCOC(=O)c1[nH]c2ccc(OC)cc2c1NC(=O)CCN1CCSCC1,6
Cc1cccc(C)c1OCC(=O)Nc1ccccc1C(F)(F)F,18
O=C(/C=C/c1ccc(Cl)cc1)NCc1ccncc1,-4
O=C(O)CCC(=O)Nc1cccc2cccnc12,33
CCOC(=O)c1cc(C)nc(Sc2ccc(C)cc2)c1C#N,18
Cn1nccc1C(=O)Oc1cccc(/C=N/NC(=O)c2ccccc2O)c1,3
COc1cccc(N(C(=O)CCl)C(C(=O)NCCc2ccccc2)c2cccs2)c1 (stereo not drawn),19
COC(=O)c1ccc(N=c2sc(C(=O)OC)cc(=O)n2C)cc1,15
C=CCc1cccc(/C=N/NC(=O)C(=O)Nc2ccc(C)cc2)c1O,14
O=C(NCCN1C(=O)S/C(=C\c2ccccc2)C1=O)C1CCN(S(=O)(=O)c2cccs2)CC1,15
CCOC(=O)N1CCC(NC(=O)C2=CCN(S(=O)(=O)c3ccccc3)CC2)CC1,26
COC(=O)c1ccc(CN2CCCCC2)cc1,27
COc1ccc(NC(=O)c2cc(-c3cccc(OC)c3)on2)cc1,9
CCCc1c(C)nc2c(Br)cccc2c1Cl,11
Cc1ccc(NC(=O)NCC2CCN(Cc3cccc(Cl)c3)CC2)c(Cl)c1,16
COc1cccc(NC(=O)Nc2ccc(C(C)(C)C)cc2)c1,18
O=C(CCC(=O)OCC(=O)c1ccc([N+](=O)[O-])cc1)NC1CCCCC1,-6
Cc1cccc(-n2cc(C(=O)O)c(=O)cc2C)c1,15
Cn1c(CCC(=O)OCC(=O)NCC(F)(F)F)nc(=O)c2ccccc21,0
COC(=O)c1sccc1S(=O)(=O)Nc1ccc(N2CCCCC2)cc1,16
CC1CC(C)(C)NC(=S)N1CCCC(=O)Nc1ccc(Cl)cc1 (stereo not drawn),11
COc1ccc(NC(=O)C(c2cc3c(cc2[N+](=O)[O-])OCO3)N(C)Cc2ccccc2)cc1 (stereo not drawn),12
CSc1ccc(/C=C/c2ccc3cccc(O)c3n2)cc1,11
COc1cccc(CN2CCNC(=O)C2CC(=O)NCc2cc(C(C)C)no2)c1 (stereo not drawn),-14
Oc1ccc(/C=N/Nc2ccc(C(F)(F)F)cn2)cc1,11
Cc1ccc(S(=O)(=O)N2CCC(C(=O)NNC(=O)C3CC3)CC2)cc1Cl,11

# Next compounds follow:
SMILES,Calb biofilm kill
COc1ccccc1NS(=O)(=O)c1cc(NC(=O)c2ccco2)ccc1N1CCOCC1,9
Cc1ccn2c(CNC(C)CCn3cccn3)c(C(=O)N3CCCCCC3)nc2c1 (stereo not drawn),-1
COc1ccc(OC)c(/C=N/NC(=O)c2[nH]nc3c2CCc2ccccc2-3)c1,11
O=C(CCCN1C(=O)/C(=C/c2cccs2)SC1=S)NNC(=O)c1ccccc1O,25
CCOC(=O)C1=C(C)N(C)C(C)=C(C(=O)OCC)C1c1ccc(Cl)cc1,19
CCn1ncc(Br)c1C(=O)Nc1ccn(C23CC4CC(CC(C4)C2)C3)n1,4
Cc1cc(C)c2c(N)c(C(=O)N/N=C/c3ccccc3)sc2n1,15
CCCCCCCCC(=O)NC(NC(=S)N1CCOCC1)C(Cl)(Cl)Cl (stereo not drawn),8
O=C1C2CCCN2C(=O)N1CCN1CCN(CCO)CC1 (stereo not drawn),20
CCCCOC(=O)c1ccc(NC(=O)C(=O)NCc2cccnc2)cc1,12
CCN(CC)C(=S)SC1CCCCN(C(=O)c2ccc(F)cc2)C1=O (stereo not drawn),15
O=C(Cn1cnc2nc3n(c2c1=O)CCC3)NCc1ccccc1,8
CC1CN(c2nc3ccccn3c(=O)c2C=O)CC(C)O1 (stereo not drawn),23
CCc1ccc(/C=C(/C#N)C(N)=S)s1,10
O=C(c1ccc([N+](=O)[O-])s1)N1CCN(c2ccccc2)CC1,17
CCC1=NN(C(=O)COc2ccccc2C)C(O)(c2ccncc2)C1 (stereo not drawn),25
COC(=O)c1ccc(C)c(-n2c(C)cc(C=O)c2C)c1,21
Cc1[nH]n(-c2ccccc2)c(=O)c1C(c1ccccc1C(=O)O)c1c(C)[nH]n(-c2ccccc2)c1=O,12
CC(=O)Nc1nc2ccccc2n1Cc1ccc(C)cc1,9
CN1CCC(OC(=O)COc2ccc(Br)cc2)CC1,19

# 20 entries from above, sorted by molar mass, ascending:
SMILES,Calb biofilm kill
Cc1cccc(-n2cc(C(=O)O)c(=O)cc2C)c1,15
Cc1ccc(-c2cc(Cc3ccccn3)c(=O)[nH]n2)cc1,22
Oc1ccc(/C=N/Nc2ccc(C(F)(F)F)cn2)cc1,11
CC1CN(c2nc3ccccn3c(=O)c2C=O)CC(C)O1 (stereo not drawn),23
Cc1ccc2oc(=O)n(CCCOc3ccccc3C)c2c1,8
COc1ccc(CNC(=O)C(C)Cc2ccccc2)cc1O (stereo not drawn),6
O=C(c1ccc([N+](=O)[O-])s1)N1CCN(c2ccccc2)CC1,17
Cc1cccc(C)c1OCC(=O)Nc1ccccc1C(F)(F)F,18
CN1CCC(OC(=O)COc2ccc(Br)cc2)CC1,19
FCCCOc1ccc(CN2CCN(c3ccccc3F)CC2)cc1,17
CC1CC(C)(C)NC(=S)N1CCCC(=O)Nc1ccc(Cl)cc1 (stereo not drawn),11
Cc1c(C(C)(C(=O)O)c2c(C)n(C)c3ccccc23)c2ccccc2n1C,9
Cc1noc(C(F)(F)F)c1C(=O)NNC(=O)c1cccc(C(F)(F)F)c1,18
Cc1ccc(S(=O)(=O)N2CCC(C(=O)NNC(=O)C3CC3)CC2)cc1Cl,11
CC1(C)C=Cc2c(c3c(c4c(=O)c(-c5ccc(O)cc5)coc24)OC(C)(C)CC3)O1,22
Cc1ccn2c(CNC(C)CCn3cccn3)c(C(=O)N3CCCCCC3)nc2c1 (stereo not drawn),-1
CCOCCCNC(=O)C(NC(=O)c1ccc(NC(C)=O)cc1)c1ccc(C)cc1 (stereo not drawn),17
CCCCCCCCC(=O)NC(NC(=S)N1CCOCC1)C(Cl)(Cl)Cl (stereo not drawn),8
O=C(CCCN1C(=O)/C(=C/c2cccs2)SC1=S)NNC(=O)c1ccccc1O,25
COc1ccc(NC(=O)C(c2cc3c(cc2[N+](=O)[O-])OCO3)N(C)Cc2ccccc2)cc1 (stereo not drawn),12

# The results go on:
SMILES,Calb biofilm kill
C=CC(=O)NCc1ccc(-c2csnn2)cc1,9
COC(c1ccccc1)c1nnc(CCC(=O)NCCCc2ccccc2)o1 (stereo not drawn),2
CCOc1ccc(NCC(=O)Nc2ccc(Cl)cc2C)cc1,10
Cc1ccc(-c2cc(C(=O)NCc3cnn(C)c3)c3cc(Br)ccc3n2)cc1,19
CNC(=S)N(Cc1ccc(OC)cc1)C1CC(=O)N(c2ccc(C(=O)OC)cc2)C1=O (stereo not drawn),12
CCn1c(C)nc2cc(S(=O)(=O)N3CCCCC3)ccc21,18
C/C(=N\Nc1ccc(C(=O)O)cc1)c1ccc(Br)cc1,5
Cc1ccc2nc(SCC(=O)c3ccc(O)cc3O)[nH]c2c1,15
Cc1c(Cl)c([N+](=O)[O-])nn1CCCC(=O)O,11
NS(=O)(=O)c1ccc(CCNC(=O)CSc2nc3ccsc3c(=O)n2CCCCC(=O)O)cc1,13
COc1ccc(CCNC(=O)/C(C#N)=C/c2cccc(OCc3ccccc3)c2)cc1OC,14
COc1ccc(NC(=S)N(Cc2ccccn2)Cc2ccccc2Cl)cc1,20
Fc1ccc(-c2cc(C(F)(F)F)n3ncnc3n2)cc1,11
O=C(COc1cccc2c1CCN(Cc1ccc(Br)cc1)C2=O)N1CCOCC1,-9
CCOC(=O)N1CCN(C(=O)COc2ccc3c(c2)C(=O)CC(C)(C)O3)CC1,12
Cc1ccc(O)c(-n2nc3ccccc3n2)c1,24
CN1CCC(Oc2ccccc2Sc2ccccc2)CC1,17
COC(=O)Nc1ccc(SCC(=O)c2ccc(Cl)cc2)cc1,10
C=CCN1C(=O)/C(=c2\sc3nc(=O)c(Cc4ccccc4)nn3c2=O)c2ccccc21,18
COc1cc(NC(=O)CCCn2c(=S)[nH]c3ccccc3c2=O)cc(OC)c1OC,6
CCOc1ccccc1NC(=O)Cn1c(=O)c2ccccc2n(CC)c1=O,-4
O=c1c(OC2OC(CO)C(O)C(O)C2OC2OC(CO)C(O)C(O)C2OC2OC(CO)C(O)C(O)C2O)c(-c2ccc(O)c(O)c2)oc2cc(O)cc(O)c12 (stereo not drawn),13
Cn1c(=S)[nH]c2scc(-c3cccs3)c2c1=O,10
N#C/C(=C/c1cccn1-c1cccc(C(=O)O)c1)c1ccc(Cl)cc1,22
O=C(O)c1ccc(S(=O)(=O)Nc2cccc(CP(=O)(c3ccccc3)c3ccccc3)c2)cc1,17
COc1ccc(-n2c(O)c(Cc3ccccc3)c(=O)n3nc(-c4ccccc4)c(=O)cc23)cc1,14
COC(=O)c1c(NC(=O)C2C3CCC(O3)C2C(=O)O)sc2c1CCCCCC2 (stereo not drawn),11
Cc1ccccc1C(=O)N1CCN(c2ccc(NC(=O)c3cccnc3Cl)cc2)CC1,23
COc1ccccc1C(=O)CSc1cccc[n+]1[O-],7
COC(=O)c1ccc(C2=NOC(C)(c3sc(-c4ccc(Cl)cc4)nc3C)C2)cc1 (stereo not drawn),17
CC(C)(C)c1ccc2c(c1)OC(C(=O)N/N=C/c1ccc([N+](=O)[O-])o1)CO2 (stereo not drawn),4
O=C1OC(c2ccccc2)c2ccc3ccccc3c21 (stereo not drawn),-3
CCC(=O)Nc1ccc(C(=O)NNC(=O)c2ccc([N+](=O)[O-])cc2)cc1,11
CCOc1ccc(-c2n[nH]c(=S)o2)cc1,9
O=c1oc2ccccc2c(NCc2ccccc2)c1[N+](=O)[O-],-14
CCCCOc1ccc(NC(=O)C2OC3OC(C)(C)OC3C3OC(C)(C)OC23)cc1 (stereo not drawn),15
O=C(CCCC(=O)NCc1ccc(F)cc1)NCc1ccc(F)cc1,20
CC(C)(C)c1ccc(C(=O)NNC(=O)c2ccc(Cl)cc2)cc1,14
CC(C)c1ccc(NC(=S)NC2CC3C=CC2C3)cc1 (stereo not drawn),3
Cc1cc([N+](=O)[O-])nn1CC(=O)N/N=C/c1ccccc1F,10
CCCCN=C1NC(=O)C(CC(=O)NCCc2ccc(OC)cc2)S1 (stereo not drawn),21
CCCCCC(=O)NC(=S)Nc1cccc(C(C)=O)c1,12
C=CCNC(=O)N1CCCC(C(=O)c2cccc(Cl)c2)C1 (stereo not drawn),6
Cc1ccc(C(=O)COC(=O)c2cn(-c3ccccc3)nc2-c2ccccc2)cc1[N+](=O)[O-],17
Cc1cccc(OC(=O)n2c(=S)oc3cc(Cl)ccc32)c1,2
CC(=O)Nc1nc(-c2cc([N+](=O)[O-])cs2)cs1,11
COc1ccc2nc3c(c(-c4ccccc4)c2c1)CCC3,16

# From PubChem BioAssay

# These rows are one share of the data (hit frequency here may not be typical).
